# Source: PubChem BioAssay (National Center for Advancing Translational Sciences (NCATS))
# VDR inhibitor = vitamin D3 receptor (human) inhibition; P11473; VDR-SRC2-3 peptide fluorescence polarization, 2 h; Potency, µM, for inactives: max response, negative = inhibition, most hits filed as inhibitors; 400,000 compounds, 0.93% hits; AID 504847; active means well fitted inhibition curve with a large enough effect; inconclusive means small, poorly fitted or top-dose-only effect, or another doubt; inactive means no such curve, though single readings can be large or run the other way; further: series mostly up to about 120 µM
# Target sequence (P11473 whole entry, looked up): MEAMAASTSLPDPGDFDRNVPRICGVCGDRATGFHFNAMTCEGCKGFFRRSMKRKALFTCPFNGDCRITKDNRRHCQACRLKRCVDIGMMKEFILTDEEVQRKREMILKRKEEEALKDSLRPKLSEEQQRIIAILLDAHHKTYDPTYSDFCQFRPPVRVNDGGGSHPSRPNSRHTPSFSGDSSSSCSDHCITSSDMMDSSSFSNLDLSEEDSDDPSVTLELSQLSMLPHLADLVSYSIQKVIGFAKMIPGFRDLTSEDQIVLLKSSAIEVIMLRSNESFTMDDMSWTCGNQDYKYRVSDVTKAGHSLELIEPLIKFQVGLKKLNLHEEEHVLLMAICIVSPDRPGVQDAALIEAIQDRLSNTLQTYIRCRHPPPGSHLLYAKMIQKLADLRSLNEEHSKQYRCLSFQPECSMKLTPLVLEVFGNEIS
#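 Measured by FP: displacement of SRC2-3 coactivator peptide from VDR by library compounds, following a two-hour ambient incubation.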
# * = called active by the depositor; ? = inconclusive; & = joins results of further samples; [ ] = remark or other dose. On the % scale 0 is the no-effect control and ±100 the full control effect; potency means the concentration at half of the fitted maximal effect. These rows are one share of the data. The share of hits here may be higher or lower than overall.
molecule	VDR inhibitor
CCOC(=O)CN(Cc1ccccc1)C(C(=O)NC1CCCCC1)c1ccccc1 (stereo not given)	-2%
O=C(O)CSc1nc2c(c(C(F)(F)F)n1)CCc1ccccc1-2	-16%
CC1=NN(C(N)=S)C(=O)C1N=Nc1cccc(C(=O)O)c1 (stereo not given)	14%
Cc1ccc(C(C)NC(=O)c2ccco2)cc1C (stereo not given)	-7%
O=C(Nc1cccc(C(F)(F)F)c1)C1CCN(S(=O)(=O)c2ccc(N3CCCC3=O)cc2)CC1	-1%
Cc1ccc(NC(C)c2cc(Cl)ccc2O)cc1 (stereo not given)	3%
COc1cccc(C2C(C(N)=O)=C(C)Nc3nc(-c4cccc(Cl)c4)nn32)c1 (stereo not given)	-19%
Cn1cnnc1SCC(=O)Nc1cc(C(F)(F)F)ccc1N1CCOCC1	9%
CCO[C@@H]1OC(C(=O)N2CCCCCCC2)=C[C@H](c2cn(C(C)=O)c3ccccc23)[C@H]1CCCO	-10%
O=C(NCc1cccs1)C(=O)NCC1OCCCN1S(=O)(=O)c1ccccc1 (stereo not given)	-6%

# More records:
molecule	VDR inhibitor
CCCCc1nc2cc(C(=O)N3CCC[C@H]3CO)ccc2o1	1%
CC1COC(c2cccn2Cc2ccccc2Cl)=N1 (stereo not given)	-6%
COc1ccc(CNC(=O)c2c([S-])n(-c3ccc(C)cc3)c3cccc[n+]23)cc1	1%
COc1ccc2nc(/C=N/NC(=O)CCCCCNC(=O)OC(C)(C)C)ccc2c1	1%
NC(=O)c1nsc(C(=O)N(CCc2ccccc2)C(C(=O)NC2CCCC2)c2ccco2)c1N (stereo not given)	8%
NS(=O)(=O)c1ccc(CCNC(=O)C2CCN(S(=O)(=O)c3c(Cl)cccc3Cl)CC2)cc1	7%
COc1cc(NC(=O)COC(=O)/C=C/c2ccc(OC)c(OC)c2)cc(OC)c1	-2%
O=C(Nc1ccc(NC(=O)C2CCCCC2)cn1)c1ccco1	-11%
Cc1ccc(Cn2ccc(NC(=O)c3noc4c3CCCC4)n2)cc1	9%
CCOC(=O)/C(C#N)=C/c1c[nH]c2ccccc12	-14%

# Remaining list, next part.
molecule	VDR inhibitor
Cc1nc2ccc(NC(=O)c3cccc(C(F)(F)F)c3)cc2o1	6%
Cc1cc2c(cc1Cl)C(c1ccccc1C)CC(=O)O2 (stereo not given)	-12%
CCCCCCSc1cccc(-c2nc3ccc(Cl)cn3c2NCc2ccccc2)c1	-16%
CCOC(=O)c1c(C)n(-c2ccccc2)c2ccc(OC(=O)COc3ccc(Cl)cc3)cc12	8%
CCc1nnc(SCc2ccc(C(=O)OC)o2)n1N	4%
Cc1cccc(NS(=O)(=O)c2cccc(C(=O)N3CCCCCC3)c2)c1	-11%
COc1ccc(NS(=O)(=O)c2cccc(C(=O)NNC(=O)c3ccc(Br)o3)c2)cc1	35%[activator]
COc1ccc(-c2cc(=O)c3cc(F)ccc3[nH]2)cc1	0%&14%
CCOc1cc(C(=O)N(C)CC(=O)Nc2cccc3ccccc23)ccc1OC	8%
CC(C)C(=O)NC(c1ccccc1Cl)c1c(O)ccc2ccccc12 (stereo not given)	10%

# Additional results follow.
molecule	VDR inhibitor
Cc1c(NS(=O)(=O)c2cccc(C(=O)N3CCCC3)c2)c(=O)n(-c2ccccc2)n1C	-8%
Cc1cc(C)cc(-n2c(SCC(=O)Nc3cccc(S(=O)(=O)NC4=NCCCCC4)c3)nc3ccccc3c2=O)c1	-15%
C=CCCN(C(C(=O)OC)C(C)C)S(=O)(=O)c1ccccc1Br (stereo not given)	4%&-7%
O=C(Cn1nc2ccccc2n1)N/N=C/c1cc([N+](=O)[O-])ccc1O	-22%
Cc1ccc(C(=O)N/C(=C\c2cn(-c3ccccc3)nc2-c2ccccc2)C(=O)N2CCOCC2)cc1	-15%
CCCC(=O)Nc1nnc(S(=O)(=O)N(CC)c2ccccc2)s1	6%
CO[C@@]1(NC(=O)C2SC(=C(C(N)=O)C(=O)O)S2)C(=O)N2C(C(=O)O)=C(CSc3nnnn3C)CS[C@@H]21 (stereo not given in full)	-18%
CCC(C)NC(=O)C1CCN(S(=O)(=O)c2cccnc2)CC1 (stereo not given)	?
CCN(C(=O)c1ccc2c(=O)n3c(nc2c1)CCCCC3)c1ccc(F)cc1	7%
COc1ccc(CNC(=O)C[C@H]2C[C@H](C(=O)N3CCOCC3)[C@@]3(C)c4[nH]c5cc(-c6ccco6)ccc5c4CCN3C2=O)cc1OC	-8%

# Further records
molecule	VDR inhibitor
Cc1ccc(C)c(N2CCN(C(=O)CCNC(=O)Cn3ccc4ccccc4c3=O)CC2)c1	5%
CC(C)C(NC(=O)CCN1C(=O)c2ccccc2C1=O)c1ccccc1 (stereo not given)	4%
Fc1cccc2sc(Nc3nnc(-c4ccco4)o3)nc12	-15%
COC(=O)c1sc2ccccc2c1NC(=O)c1ccc(S(=O)(=O)N2CCCC(C)C2)cc1 (stereo not given)	-12%
Cc1cc(N/N=C/c2ccc(Cl)cc2)nc(NCc2ccccc2)n1	5%
COc1ccc(/C=C(\NC(=O)c2ccc(C)cc2)C(=O)NCCCn2ccnc2)cc1	-1%
O=C(Nc1ccccc1)N1CCCC(c2nc(-c3ccc(F)cc3)no2)C1 (stereo not given)	-2%
O=C(COC(=O)/C=C/c1ccc([N+](=O)[O-])cc1)NC(c1ccccc1)c1ccccc1	-7%
COc1ccccc1C(=O)N(C)CC(=O)Nc1ccc(N2CCOCC2)cc1	-11%
O=C(COc1ccc(Cl)cc1)NNC(=O)CSc1nncs1	1%

# (listing goes on)
molecule	VDR inhibitor
Nc1nnc(SCC(=O)Nc2ccccc2C(F)(F)F)s1	-8%
O=C(Cn1nnc2ccccc21)c1ccccc1	-10%
COc1cccc(C2C(C#N)=C(N)Oc3cc(C)[nH]c(=O)c32)c1OC (stereo not given)	1%
C=CCn1c(Cc2cccs2)nnc1SCC(=O)Nc1ccc(C(=O)OCC)cc1	5%
O=C(Cn1cc2c(n1)CCCC2)Nc1ccccc1Cl	-17%
COC(=O)c1ccccc1NC(=O)CSc1nc2cccnc2n1C	-19%
CC(C(=O)NC1CCS(=O)(=O)C1)N1C(=O)/C(=C/c2ccc(Cl)cc2)SC1=S (stereo not given)	?
COc1ccc(CNC(=O)C(=O)NCCC2CCCCN2S(=O)(=O)c2cccs2)cc1 (stereo not given)	14%
CCSc1nnc(NC(=O)c2cc(C)oc2C)s1	-11%
CCOc1ccc2nc(SCC(=O)Nc3ccc4c(c3)OCCO4)[nH]c2c1	12%

# (cont.)
molecule	VDR inhibitor
CCn1cc(/C=C(\NC(=O)c2ccccc2OC)C(=O)NCCCN2CCOCC2)c2ccccc21	13%
COc1cc([N+](=O)[O-])cc(/C=N/NC(=O)c2cc(-c3ccccc3)nc3ccccc23)c1O	-15%
C[C@]12C[C@@](C)(C=C1/C=C/c1ccccc1)C(=O)C[C@H]2c1ccccc1	7%
O=C(NCc1ccc(Cl)cc1)c1ccc2c(c1)N(Cc1ccccc1F)C(=O)c1ccccc1S2=O (stereo not given)	-17%
O=c1c(-c2ccc(Cl)cc2)[n+]([O-])c2ccccc2n1O	7%
Cc1ccc2[nH]c(=O)c3cc(C(=O)N(C)c4ccc(C)c(C)c4)sc3c2c1	7%
COc1cccc(O)c1O	50µM*
CCOc1ccc(Nc2ccc(N3C(=O)CCC3=O)cc2[N+](=O)[O-])cc1	12%
O=C1CCN(CCCc2ccccc2)CCN1[C@H](CO)c1ccccc1	12%
C/C(=N\Nc1ccc(F)cc1F)c1ccc(N2CCOCC2)cc1	-9%

# (next part)
molecule	VDR inhibitor
Cc1cc(NC(=O)C2CCCCC2)n(-c2nc3ccccc3[nH]2)n1	2%
C=CCNC(=O)CCCc1ccccc1	9%
CN1/C(=C\C=C(C#N)C#N)C(C)(C)c2ccccc21	19%
CC(C)(C)n1nc2c(c1NC(=O)Cc1ccc(F)cc1)CSC2	1%
CS(=O)(=O)Cc1ccc(C(=O)Nc2cccc(-c3nc4ccccc4[nH]3)c2)cc1	6%
Cc1ccc(C(=O)COC(=O)c2ccc(Cl)c(N)c2)s1	-28%
O=C(CCCCCn1c(=O)[nH]c2ccsc2c1=O)NCc1cccs1	8%
CC(=O)c1ccc(Oc2ncnc3c2oc2ccccc23)cc1	7%
COc1ccc(-n2c3c(c(=O)[nH]c2=O)C(NS(=O)(=O)c2ccc(Cl)cc2)(C(F)(F)F)C(=O)N3)cc1 (stereo not given)	13%
CC1CCCC(C)N1/N=C/c1cc(Br)cc(Br)c1O (stereo not given)	-17%

# More results follow:
molecule	VDR inhibitor
Clc1ccc(C2=NNC(=NCc3ccccc3)SC2)cc1	-14%
CC(=O)N1CCCc2cc(S(=O)(=O)N3CCC(C(=O)NC4CCC(C)CC4)CC3)ccc21 (stereo not given)	6%
COc1ccc(N2C(=O)C3CCCN3C2c2ccc(C)cc2)cc1 (stereo not given)	-9%
O=C(CC1C(=O)NCCN1Cc1c(F)cccc1Cl)NCCCn1cccn1 (stereo not given)	5%
O=C(c1ccccc1Cl)N1CCn2c1nc1ccccc12	1%
COc1ccc(CN2C(=O)NC(C)(c3ccc(C)cc3)C2=O)cc1F (stereo not given)	-10%
CCN(CC)C(=O)Nc1ccccc1C	8%
Cc1c(C(=O)NCc2cccs2)oc2ccccc12	-1%
Cc1cc2oc(=O)cc(-c3cc4ccccc4o3)c2cc1O	-23%
CCOC(=O)C1CCCN(C(=O)c2ccc(CNS(=O)(=O)c3ccc(C)cc3)cc2)C1 (stereo not given)	-7%

# Going on with the list.
molecule	VDR inhibitor
Cc1oc2ncn(C)c(=O)c2c1C(=O)Nc1ccccn1	-22%
CCCn1c(-c2cccs2)nc2ccccc21	19%
CCOc1ccccc1COC(=O)c1cccc(-n2cnnn2)c1	-6%
COc1cccc(N2CC(=O)N(c3cccc(OC)c3)CC2=O)c1	14%
COc1ccc(C2C3=C(CCCC3=O)Nc3n[nH]c(C)c32)cc1OC (stereo not given)	0%
O=C(COc1ccccc1)NCC(c1cccs1)N1CCOCC1 (stereo not given)	13%
COc1ccc(NC(=O)C23CC4CC(C2)CC(c2ccccc2)(C4)C3)c(OC)c1	-12%
Cc1ccc(C)c(NC(=O)CSc2nc(=O)n(CCN3CCOCC3)c3c2CCC3)c1	19%
COc1cc(OC)c(CN2CCc3c([nH]c4ccccc34)C2)cc1Br	2%
CC(C)CN1CC[C@@]2(CCCN(C(=O)c3csnn3)C2)C1	7%

# Further structures.
molecule	VDR inhibitor
CCC(Cn1nnc2ccccc2c1=O)NC(=O)Nc1ccccc1OC (stereo not given)	3%
CCN(CC)c1ccc(S(=O)(=O)N2CCOCC2)cc1NC(=O)COC(=O)/C=C/c1ccc(C)o1	-8%
CC(=O)Nc1ccc(NS(=O)(=O)c2ccc(CN3C(=O)c4cccnc4C3=O)cc2)cc1	-1%
O=S(=O)(c1ccccc1)N1CCN(C(=S)NC2CCCC2)CC1	-2%
CC1CCc2c(ccc3ccccc23)C1=O (stereo not given)	6%
O=C1/C(=C\c2cccnc2)SC(=S)N1c1ccc(F)cc1	-18%
CN(C)Cc1c(O)ccc2ccccc12	-26%
CSC1=NCCN1C(=O)c1c(-c2c(F)cccc2Cl)noc1C	13%
COc1ccc(C)cc1NC(=O)COCc1cc(-c2cccs2)on1	4%
Cc1ccc(SCCC(=O)N2CCN(S(=O)(=O)c3ccccc3)CC2)cc1	-5%

# Going on with the list.
molecule	VDR inhibitor
O=C(CSc1nnc(CNc2ccc(F)cc2)n1Cc1ccco1)N1CCOCC1	12%
CCCCCn1c(SCCN2CCOCC2)nc2c1c(=O)[nH]c(=O)n2C	-6%
CC(C)OC(=O)CCc1nc2ccccc2[nH]c1=O	-7%
COCCC(C(=O)Oc1c(C(C)(C)C)cc(C)cc1C(C)(C)C)c1ccccc1 (stereo not given)	2%
Cc1cc(C)cc(NC(=O)CN2CCN(CCN=CC3=C(O)CC(C)(C)CC3=O)CC2)c1	5%
CC(/C=N\NC(=O)c1ccc2c(c1)OCO2)c1ccccc1 (stereo not given)	-15%
CCCCN(CCCNC(=O)c1ccc2nc(N3CCOCC3)sc2c1)Cc1ccccc1	-12%
CCN(CC)CCn1c2c(c(SCC(=O)Nc3nc(C)cs3)nc1=O)CCC2	6%
CCCCN1C(=O)/C(=C2/Sc3ccccc3N2C)S/C1=N\c1ncn[nH]1	-11%
CC(CN1C(C)CCCC1C)OC(=O)c1ccccc1Cl (stereo not given)	0%

# (list continues)
molecule	VDR inhibitor
Cc1c(C)[n+](=O)c2c(n1[O-])C(Br)CCC2Br (stereo not given)	6%
COc1ccc(N2CCN(Cc3oc(CO)cc(=O)c3O)CC2)cc1	7%
C#Cc1ccc([C@@H]2C=C(C(=O)O)O[C@H](OCC)[C@H]2CCCO)cc1	-4%
Cc1ccc(CNC(=O)C(C(C)C)N2Cc3ccccc3C2=O)cc1 (stereo not given)	22%
O=c1cc(O)n(Cc2ccc(F)cc2)c(=O)[nH]1	?
